Mtb hypoxia inh – Mtb hypoxia fluorescent reporter inhibition. fluorescence inhibition, % (test concentration not listed). M. tuberculosis hypoxia-regulated fluorescent reporter, fluorescence. 0.1% of 300,000 active;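 active = 35 to 45% if threefold the growth effect, above 45% if 1.5-fold the growth effect; inactive = the rest, general growth blockers included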;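 also: wells of about 50 µL received 100 nL stock; 0% = vehicle wells and 100% = reference inhibitor wells; whole bacteria with a GFP reporter of the hypoxia response; strong numbers were not always called active; many hits fall short of the cut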
PrP 5UTR inh – suppresses PrP 5' UTR mRNA reporter expression; 0.35% of 340,000 active; cell-based PrP 5' UTR mRNA reporter, plate reader; inhibition, % (test concentration not listed);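 active = every replicate at 50% or more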;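 also: 0 = median of the neutral control wells; tested in H4 reporter cells; numbers are from one replicate; inactives centre near -14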
Sa ugtP lethal – growth inhibition of S. aureus ugtP deletion strain. growth inhibition, % (concentration not given with the values). AID 1259309. 0.54% of 330,000 active. S. aureus RN4220 ugtP deletion, OD600 growth, 16 h; some inactives read as strong as hits;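 active = z-score under -3 and OD600 up to 0.15 on both plates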;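 also: plate controls were untreated wells for no effect and antibiotic for full effect; wells of about 80 µL received 100 nL stock; the first replicate is given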
Autofluor counter – compound fluorescence in toxin protease inhibitor counterscreen. compound autofluorescence counterscreen, microsphere flow cytometry; stronger effect = higher value. fluorescence intensity (test concentration not listed). 3.1% of 360,000 active. AID 624483;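 active = at least 3 SD above the mean of all compounds, about 16000 in these data; inconclusive = too few beads counted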;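 also: 100 nL of 1 mM stock went into each well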
BJeLR lethal – kills HRASV12-expressing BJeLR cells; BJeLR (HRASV12) viability, CellTiter-Glo ATP luminescence, 48 h; reference of the scale not given here; 0.17% of 300,000 active; inhibition, % (no concentration beside the values);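 active = replicate mean above 50%; inconclusive = above 50% but judged a plate artefact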;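 also: 50 nL library stock added to about 25 µL; numbers are from one replicate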
RN4220 kill – S. aureus RN4220 growth inhibition; 0.33% of 330,000 active; inhibition, % (no concentration beside the values); OD600, 16 h;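 active = z-score of -3 or lower and OD600 up to 0.18 on both plates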;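 also: plate controls were untreated cells for no effect and reference antibiotic for full effect; stock transfer was 100 nL into about 80 µL; one replicate is shown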
Mtb hypoxia inh growth – further read-out of Mtb hypoxia inh, marked with its call; growth inhibition, %; measured here: M. tuberculosis growth (absorbance);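 0% = vehicle and 100% = reference antibiotic; read after six days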
* = called active by the depositor; u = inconclusive; x = not tested or not shown; & = joins results of further samples.

1) COc1cccc(-c2c(C(=O)NN=Cc3cccs3)nnn2-c2nonc2N)c1
2) COc1ccc(Cl)cc1NC(=S)NCc1ccc(S(N)(=O)=O)cc1
3) CC(C)[C@H](CO)N(Cc1cccc(F)c1)c1nc(Nc2cccc(Cl)c2)c2ncn(C(C)C)c2n1
4) CCN(CC)CCn1c2c(c(SCC(=O)Nc3ccc(C)c(F)c3)nc1=O)CCCC2
5) Cc1cccc(NC(=S)NCCSc2ccc(Cl)cc2)c1
6) Cc1ccc(S(=O)(=O)N(C)C)cc1NC(=S)NC(=O)C12CC3CC(CC(C3)C1)C2
7) COc1cc(NC(=S)Nc2cccnc2)cc(OC)c1OC
8) CCOC(=O)CN1NC2(CCCC(C)C2)NC1=S (stereo not given)
9) CN(C)c1ccnc2c[cH-]cc12.[Fe].c1ccc(-[c-]2[c-](-c3ccccc3)[c-](-c3ccccc3)[c-](-c3ccccc3)[c-]2-c2ccccc2)cc1 (stereo not given)
10) CC(=C\C(=O)O)/C(=C/c1ccccc1)C(=O)O
entry no.	1	2	3	4	5	6	7	8	9	10
Mtb hypoxia inh	2	8	x	6	9	-10	7	13	11&15	12
Mtb hypoxia inh growth	0	3	x	7	0	5	4	11	22&19	10
PrP 5UTR inh	x	-10	-16	-2	-4	-8	-23	10	-21&-11	-33
Sa ugtP lethal	6	2	x	4	-11	0	9	10	-2&-13	-5
Autofluor counter	x	2935	3405	u	3524	2082	10139	8603	2614&3001	10397
BJeLR lethal	x	-13	-4	11	5	-16	8	2	15&8	7
RN4220 kill	5.7	1.1	x	1.9	-0.3	-4.3	2.8	6.7	1.6&47	-2.4

Random excerpt: 4 entries already listed, in no set order.
7) COc1cc(NC(=S)Nc2cccnc2)cc(OC)c1OC
8) CCOC(=O)CN1NC2(CCCC(C)C2)NC1=S (stereo not given)
1) COc1cccc(-c2c(C(=O)NN=Cc3cccs3)nnn2-c2nonc2N)c1
9) CN(C)c1ccnc2c[cH-]cc12.[Fe].c1ccc(-[c-]2[c-](-c3ccccc3)[c-](-c3ccccc3)[c-](-c3ccccc3)[c-]2-c2ccccc2)cc1 (stereo not given)
entry no.	7	8	1	9
Mtb hypoxia inh	7	13	2	11&15
Mtb hypoxia inh growth	4	11	0	22&19
PrP 5UTR inh	-23	10	x	-21&-11
Sa ugtP lethal	9	10	6	-2&-13
Autofluor counter	10139	8603	x	2614&3001
BJeLR lethal	8	2	x	15&8
RN4220 kill	2.8	6.7	5.7	1.6&47

Other records follow:
11) COC(=O)c1ccc(CN2CCC(Oc3ccc(C(=O)N4CCCCC4)cc3)CC2)cc1
12) O=S(=O)(N1CCOCC1)n1c(Cc2ccccc2)nc2ccccc21
13) O=c1c2c(-c3ccc(Cl)cc3)csc2ncn1N=Cc1cccc([N+](=O)[O-])c1O
14) CCCc1nc(SCC(=O)N2CCCC2)c2c(=O)n(C)c(=O)n(C)c2n1
15) COc1ccc(-c2nnc(SCC(=O)NC(C)C)n2CC2CCCO2)cc1OC (stereo not given)
16) Cc1cc(C)n(CC(=O)NNC(=O)CC(C)c2ccccc2)n1 (stereo not given)
17) CC(=O)Nc1ccc(Nc2ncc([N+](=O)[O-])c(Nc3ccc(NC(C)=O)cc3)n2)cc1
18) COc1ccc(-c2nc3ccccc3c(=O)[nH]2)cc1
19) O=C(NN=Cc1ccc(S(=O)(=O)O)o1)c1ccc2c(c1)OCO2
20) CC(C)(C)NS(=O)(=O)c1ccc(CCC(=O)NCc2ccc3c(c2)OCO3)cc1
entry no.	11	12	13	14	15	16	17	18	19	20
Mtb hypoxia inh	2	-3	12	16	x	6	9	-2	5	-5
Mtb hypoxia inh growth	12	0	16	11	x	-3	7	4	0	-3
PrP 5UTR inh	-24	-4	x	-14	-14	2	24	-62	x	-22
Sa ugtP lethal	7	1	2	7	7	7	0	0	10	-12
Autofluor counter	5627	7701	x	4128	4641	3015	2433	4209	x	8769
BJeLR lethal	11	2	x	0	-3	x	1	-3	x	-1
RN4220 kill	4.2	7.1	3.9	3.7	2.2	2.5	4.9	3.1	1.8	-4.9

21) N#CCC1c2ccccc2CCN1C(=O)Nc1cccc(C(F)(F)F)c1 (stereo not given)
22) CCOc1ccc(NC(=O)CSC2=C(C#N)C(c3ccc4c(c3)OCO4)CC(=O)N2)cc1 (stereo not given)
23) O=S(=O)(Nc1ccc(-c2csc(-c3ccccc3)n2)cc1)c1ccc(F)cc1
24) COc1ccc(OC(C)C(=O)Nc2ccc(F)cc2F)cc1 (stereo not given)
25) CCC(C)(C)n1nnnc1C(c1ccc2ncccc2c1)N1CCN(Cc2ccc3c(c2)OCO3)CC1 (stereo not given)
26) O=C(Cn1nnc(-c2ccccc2)n1)NNC(=O)c1ccco1
27) COc1ccccc1CCc1nnc(CCC(=O)NCCOc2cccnc2)o1
28) CCCCCC(=O)OC(CN1CCCCCC1)CN1CCCC1=O (stereo not given)
29) CCOC(=O)c1nnn(-c2nonc2N)c1COc1c(C=O)cccc1OC
30) O=C(Nc1ccc(F)cc1)c1cc(-c2ccncc2)nc2c(Cl)cccc12
entry no.	21	22	23	24	25	26	27	28	29	30
Mtb hypoxia inh	-14	x	x	4	-3	6	6	2	2	-9
Mtb hypoxia inh growth	0	x	x	-2	1	3	7	-4	14	-6
PrP 5UTR inh	-29	15	4	6	2	-5	-26	0	-30	-1
Sa ugtP lethal	-24	13	-9	7	22	3	11	6	-10	-49
Autofluor counter	11347	2169	2125	4256	9391	3168	2575	3899	3710	5010
BJeLR lethal	-3	-11	-4	-7	1	-17	-1	5	-4	1
RN4220 kill	-10.0	5.1	5.2	5.8	8.8	-0.8	-0.2	3.7	-6.1	-13

31) Cc1cccc(OC(C)C(=O)Nc2nccs2)c1 (stereo not given)
32) C=CCn1c(=C2C(=O)N(CC)C(=S)N2c2ccccc2)sc(=C2SC(C)=C(C)N2CC)c1=O
33) O=C(c1ccc(Br)cc1)c1coc2ccc(O)cc12
34) Fc1ccc(-c2cc3nc4c(c(N5CCOCC5)n3n2)CCCC4)cc1
35) COc1ccc(S(=O)(=O)NC(C)C(=O)Nc2ccc3c(c2)OCCO3)cc1OC (stereo not given)
36) O=C(CCNS(=O)(=O)c1ccc(Cl)cc1)OCC(=O)c1ccc[nH]1
37) CCOc1ccc(Cl)cc1Nc1nc(NCCO)nc(N2CCCC2)n1
38) CCN(CC)CCCNC(=O)CCc1ccccc1
39) O=C(c1ccccn1)N1CC=C(c2ccccc2)CC1
40) COc1ccccc1NC(=O)CSc1nnc(C)n1CCc1ccccc1
entry no.	31	32	33	34	35	36	37	38	39	40
Mtb hypoxia inh	6	8	1	16	5	4	4	x	15	7
Mtb hypoxia inh growth	0	1	-7	11	6	5	6	x	8	18
PrP 5UTR inh	-6	x	-92	-32	-21	-10	-6	-15	-36	-11
Sa ugtP lethal	5	23	-1	3	6	8	2	-1	8	0
Autofluor counter	6142	x	6225	8061	3829	4324	4071	2761	4372	4264
BJeLR lethal	-2	x	0	-2	-8	-13	-4	x	x	-8
RN4220 kill	4.5	18	1.6	2.1	-1.2	6.1	-1.1	0.4	2.7	4.1

41) Cc1ccc(S(=O)(=O)N2CCCCC2)cc1C(=O)Nc1ccc2cn[nH]c2c1
42) COC(=O)c1[nH]c2cccc(Cl)c2c1NC(=O)CN1CCCCC1C (stereo not given)
43) Cc1ccc(NC(=S)N(CCCN2CCC(C)CC2)Cc2ccco2)cc1
44) COC(=O)CSc1nnc(CNC(=O)Cc2ccccc2)n1C
45) Cc1sccc1C=NNC(=O)c1ccco1
46) COc1ccccc1NC(=O)/C=C/C(N)=O
47) CN(C)CCNC(=O)c1ccccc1-c1cc2ccccc2c(=O)o1
48) Cc1ccc(CNC(=O)CCS(=O)(=O)c2cc3c(cc2Cl)NC(=O)CO3)cc1
49) Cc1ccc(NC(=O)CCC(=O)N2CCC(c3ccccc3)=N2)cc1S(=O)(=O)N1CCCCC1
50) Cc1ccc2c(c1)nnn2C1CCN(C(=O)NC23CC4CC(CC(C4)C2)C3)CC1
entry no.	41	42	43	44	45	46	47	48	49	50
Mtb hypoxia inh	1	9	-1	-7	10	3	8	-9	2	-74
Mtb hypoxia inh growth	12	4	8	-5	9	3	8	-4	-3	1
PrP 5UTR inh	-18	6	-15	-13	x	-26	-18	-33	-22	x
Sa ugtP lethal	-3	-6	3	11	9	24	5	-1	1	4
Autofluor counter	3387	6245	4861	9954	x	7531	3455	5172	u	x
BJeLR lethal	-3	-13	2	0	x	1	4	5	x	0
RN4220 kill	3.8	3.9	2.7	1.1	4.7	25	4.3	2.5	3.0	2.7

51) CC1CCc2c(sc(NC(=O)c3noc4c3CCCC4)c2C(N)=O)C1 (stereo not given)
52) CCC(C)(C)NC(=O)CN(Cc1ccc2c(c1)OCO2)C(=O)CCC(=O)Nc1cc(C)ccn1
53) O=C(Nc1ccccc1F)N(CCCN1CCOCC1)Cc1cc2cc3c(cc2[nH]c1=O)OCCO3
54) CSc1nc2ccccc2cc1/C=C(\C#N)c1ccc(Cl)cc1Cl
55) CNC(=O)CSc1nnc(-c2ccccn2)n1Cc1ccco1
56) CCOC(=O)N1CCC(NC(=O)Cn2ncc3ccccc32)CC1
57) Cc1c(NC(=O)OCCNC(=O)COc2c(Cl)cccc2Cl)sc(=S)n1C
58) CCN(CC)C(=O)Oc1ccc(Br)cc1C(=O)Nc1ccc(F)cc1F
59) CN(C)S(=O)(=O)c1ccc(NC(=O)CN2CCc3ccccc32)cc1
60) O=c1c(-c2ccccc2)[n+]([O-])c2ccccc2n1O
entry no.	51	52	53	54	55	56	57	58	59	60
Mtb hypoxia inh	11	-4	12	x	8	9	6	23	x	3
Mtb hypoxia inh growth	10	9	16	x	0	7	1	-2	x	-1
PrP 5UTR inh	-146	-10	-12	-5	-2	-22	-16	-4	-15	-11
Sa ugtP lethal	-14	-1	1	8	2	-3	-1	8	x	2
Autofluor counter	4885	5459	3296	3785	6388	8738	4061	3842	7716	9800
BJeLR lethal	x	-8	5	6	-10	5	-3	-1	-3	2
RN4220 kill	9.9	-0.9	-12	-9.3	12	3.2	9.2	2.3	x	4.7

61) O=C(Oc1coc(CSc2ncccn2)cc1=O)c1ccccc1[N+](=O)[O-]
62) COC(=O)CSc1nc(N)c2c3c(sc2n1)CCCC3
63) OC(CN(c1ccccc1)c1ccccc1)Cn1cnc2ccccc21 (stereo not given)
64) Cc1cc(=O)n2[nH]cnc2n1
65) COc1ccc2[nH]c3c(c2c1)CCN1C(=O)C(CC(=O)NCC24CC5CC(CC(C5)C2)C4)C[C@H](C(=O)N2CCCCC2)[C@@]31C (stereo not given in full)
66) CCCOc1ccc(C(=O)CCNc2cccc(Cl)c2)cc1
entry no.	61	62	63	64	65	66
Mtb hypoxia inh	-3	2	x	5	-18	2
Mtb hypoxia inh growth	3	4	x	3	13	-2
PrP 5UTR inh	-20	-34	-35	-24	-14	-19
Sa ugtP lethal	2	-11	-26	9	-25	-6
Autofluor counter	4227	2829	4687	2378	3269	3564
BJeLR lethal	-12	6	3	-3	x	0
RN4220 kill	4.8	11	1.7	2.2	-3.2	8.0

Screening data (PubChem BioAssay)
